Mtb H37Rv – M. tuberculosis H37Rv growth inhibitors, H37Rv strain (AID 1626). M. tuberculosis H37Rv growth inhibition; higher % means a stronger effect. inhibition, % at 10 µM, or IC50 in µM where a hit was titrated. 0.95% of 220,000 active;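 active = confirmed in a dose series; inconclusive = inhibition above 80% but not taken into the dose series; inactive = below 80% or under 30% at every dose of the series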;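 note: bacteria incubated seven days before Alamar blue readout; 0% = bacteria only wells and 100% = bacteria with antibiotic wells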
RecA splice inh – Mtb RecA intein splicing inhibitors, primary screen, biochemical, fluorescence, HTS | 0.75% of 290,000 active | AID 2221, 2009 | inhibition, %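 (about 9 µM by stock and volumes)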 | cell-free RecA intein splicing; in the data active = inhibition above about 30%; inconclusive = no clear call, values can overlap the other calls;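 note: 0% = vehicle wells and 100% = reference inhibitor control wells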
Target sequence (P9WHJ3 whole entry, looked up, canonical isoform): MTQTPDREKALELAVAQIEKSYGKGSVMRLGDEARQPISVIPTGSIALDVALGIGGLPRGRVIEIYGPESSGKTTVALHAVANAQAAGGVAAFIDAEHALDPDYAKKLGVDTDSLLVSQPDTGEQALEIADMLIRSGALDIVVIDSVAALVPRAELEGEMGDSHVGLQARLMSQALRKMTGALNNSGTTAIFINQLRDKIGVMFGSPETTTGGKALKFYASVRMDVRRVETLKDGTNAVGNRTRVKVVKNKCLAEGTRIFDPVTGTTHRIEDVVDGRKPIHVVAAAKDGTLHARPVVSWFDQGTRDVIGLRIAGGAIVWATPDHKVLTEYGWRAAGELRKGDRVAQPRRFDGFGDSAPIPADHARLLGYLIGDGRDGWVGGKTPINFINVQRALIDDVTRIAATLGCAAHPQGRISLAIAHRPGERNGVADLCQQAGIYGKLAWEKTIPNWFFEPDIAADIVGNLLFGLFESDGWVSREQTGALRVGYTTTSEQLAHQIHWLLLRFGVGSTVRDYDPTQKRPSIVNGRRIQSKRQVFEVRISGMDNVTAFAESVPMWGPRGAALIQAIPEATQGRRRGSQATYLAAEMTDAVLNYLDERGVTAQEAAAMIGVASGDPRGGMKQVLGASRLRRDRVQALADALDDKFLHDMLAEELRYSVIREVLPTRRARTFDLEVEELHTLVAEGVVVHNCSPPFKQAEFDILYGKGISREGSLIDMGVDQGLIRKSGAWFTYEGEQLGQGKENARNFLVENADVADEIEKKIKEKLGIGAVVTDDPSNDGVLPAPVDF
Mtb bLac sens – beta-lactam sensitization of Mtb H37Rv, H37Rv. M. tuberculosis H37Rv growth with meropenem, percent inhibition; hits of this screen are not shown here. inhibition, % at 25 µM. 0.27% of 330,000 active;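 active = about 74% or more and at least 40 points above the plate without the antibiotic, then above 30% in a dose series; inconclusive = first-round hits that could not be retested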;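 note: growth measured after seven days incubation then overnight dye step; 0% = bacteria only wells and 100% = bacteria with antibiotic; twin plates without the antibiotic show which effects depend on it; some results filed as inactive read as strong as hits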
Arbovirus anti – antivirals against arbovirus infection, primary screen, cell-based, full library, 10K replicate subset; 0.37% of 200,000 active; arbovirus infection cell-based antiviral screen; inhibition, % at 10 µM;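 active = inhibition from about 30%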;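 note: bluetongue infection of BSR cells; cell survival read as ATP light after 72 h; 0% = infected wells without compound and 100% = uninfected wells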
YopH inh – YopH tyrosine phosphatase inhibitors, primary screen, biochemical, fluorescence Ex485/Em525. YopH tyrosine phosphatase [Yersinia enterocolitica]. inhibition, %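 (about 10 µM by stock and volumes)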. AID 898, 2007. 0.16% of 140,000 active;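 active = inhibition of 50% or more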;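 note: controls were vehicle for no effect and minimum signal wells for full effect; inactives centre near -20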
Arbovirus anti repeat – recorded beside Arbovirus anti, whose call it bears; inhibition, %; measured here: 10K subset replicate screen; many hits read low in the repeat;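 first of two repeat runs on a subset; 0% = infected and 100% = uninfected wells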
Numbers without * were called inactive; ? = inconclusive; · = no result given. The list is partial. The share of hits here may be higher or lower than overall.

SMILES | Mtb H37Rv | RecA splice inh | Mtb bLac sens | Arbovirus anti | YopH inh | others
O=C(NCCN1CCOCC1)C1CCN(c2ncnc3c2sc2cccc(F)c23)CC1 | 1% | -2.2 | -1 | 9 | -48
C/C(=N\NC(=O)C(O)c1ccccc1)c1ccc(Cl)s1 (stereo not given) | · | -0.4 | 4 | · | ·
Cc1ccc(SCCNC(=O)CN(c2ccc3c(c2)OCO3)S(C)(=O)=O)cc1 | 6% | -2.0 | -13 | -4 | -26
Cc1cc(=O)oc2cc(OC(C)C(=O)NCCc3ccc(S(N)(=O)=O)cc3)ccc12 (stereo not given) | · | -2.4 | -4 | · | ·
COc1cc(NC(=S)NCc2ccco2)cc(OC)c1OC | -3% | -0.7 | 5 | -2 | -14
Cc1cc(=O)[nH]c(-n2[nH]c(C)cc2=O)n1 | -9% | 2.4 | 0 | 4 | -12
Cc1ccsc1CNCC(O)c1ccccc1 (stereo not given) | · | -0.8 | -1 | · | ·
CCOc1ccccc1CN1CCC(n2nccc2NC(=O)CCc2ccccc2)CC1 | · | 0.9 | 3 | · | ·
O=C(/C=C/c1ccc2c(c1)OCO2)Nc1cc(S(=O)(=O)N2CCOCC2)ccc1N1CCOCC1 | 1% | 0.2 | -1 | -10 | -34
OC1=C(O)c2nc3cc(F)ccc3nc21 | 3% | -7.8 | 3 | · | ·
O=C(NCCc1c[nH]c2ccccc12)C1CCCN(S(=O)(=O)c2ccccc2)C1 (stereo not given) | · | 0.1 | 21 | · | ·
Nc1ccc(-c2nc3c(Cl)cc(N)cc3[nH]2)cc1 | 4% | -4.5 | 29 | 2 | -47
O=C(Nc1nc(=O)c2ccccc2s1)c1ccc(F)cc1 | ? | 1.7 | 88 | -4 | -27
CN1CCC(OC(=O)C23CCC(C)(C(=O)O2)C3(C)C)CC1 (stereo not given) | -1% | -0.5 | -8 | -10 | 3
Nc1c(C(=O)NCc2ccco2)c2nc3ccccc3nc2n1CCc1ccccc1F | 13% | -4.0 | 15 | -42 | 7
CCCN(CCC)S(=O)(=O)c1nc2nc(C)cc(C)n2n1 | 2% | -0.2 | -7 | · | ·
O=C(Nc1ccccc1)c1ccc(NCCN2CCOCC2)c(S(=O)(=O)N2CCOCC2)c1 | -3% | -2.3 | 10 | 7 | -100
CCCSCCCNC(=O)c1cc2c(s1)CS(=O)(=O)C2 | -9% | 1.0 | 6 | 8 | -6
CC(C)c1ccc(NC(=O)C2=NNC(=O)CC2)cc1 | · | -4.6 | -6 | · | ·
COc1cc(N)cc(NC(=O)c2ccncc2)c1 | 4% | 0.3 | -9 | 1 | -38
O=C(Oc1cc(-c2ccccc2)no1)c1ccc(F)cc1 | -2% | -2.4 | 3 | 3 | -29
CCOC(=O)COc1ccc(C2NC(C(=O)O)CS2)cc1 (stereo not given) | -10% | -5.6 | -11 | 5 | 5
Cc1c(C(=O)N(Cc2cccs2)C2CCS(=O)(=O)C2)oc2ccccc12 (stereo not given) | 2% | 0.6 | -7 | 12 | -9
COc1ccc(C2C(C(=O)O)c3ccccc3C(=O)N2Cc2ccco2)cc1 (stereo not given) | -9% | -0.3 | 0 | · | ·

For reference, some entries already given:
SMILES | Mtb H37Rv | RecA splice inh | Mtb bLac sens | Arbovirus anti | YopH inh | others
O=C(NCCN1CCOCC1)C1CCN(c2ncnc3c2sc2cccc(F)c23)CC1 | 1% | -2.2 | -1 | 9 | -48
C/C(=N\NC(=O)C(O)c1ccccc1)c1ccc(Cl)s1 (stereo not given) | · | -0.4 | 4 | · | ·
Cc1ccc(SCCNC(=O)CN(c2ccc3c(c2)OCO3)S(C)(=O)=O)cc1 | 6% | -2.0 | -13 | -4 | -26
Cc1cc(=O)oc2cc(OC(C)C(=O)NCCc3ccc(S(N)(=O)=O)cc3)ccc12 (stereo not given) | · | -2.4 | -4 | · | ·
COc1cc(NC(=S)NCc2ccco2)cc(OC)c1OC | -3% | -0.7 | 5 | -2 | -14

(further entries)
SMILES | Mtb H37Rv | RecA splice inh | Mtb bLac sens | Arbovirus anti | YopH inh | others
Cc1cccc(Nc2nc(N)nc(-c3oc4ccccc4c3C)n2)c1 | 24% | 0.8 | 11 | · | ·
Cn1c(=O)c2c(nc(NCC3CCCO3)n2Cc2ccccc2)n(C)c1=O (stereo not given) | 0% | -2.1 | -6 | 4 | -15
O=C(CN1C(=O)NC2NC(=O)NC21)NC1CCCCC1 (stereo not given) | · | 0.3 | 0 | · | ·
N=C1c2ccccc2CN1c1ccc(F)c([N+](=O)[O-])c1 | 1% | -1.4 | -1 | · | ·
O=C(c1cc2cc(C(F)(F)F)ccc2s1)N1CCOCC1 | -5% | -0.9 | -5 | 6 | ·
NC(=O)c1sc2nc(-c3cccs3)ccc2c1N | · | -10 | -3 | · | ·
COc1ccccc1N(CC(=O)NCC1CCCO1)C(=O)CCC(=O)Nc1nccs1 (stereo not given) | 1% | -1.1 | -9 | -2 | -27
O=C(CCN1C(=O)S/C(=C\c2cccs2)C1=O)Nc1nccs1 | 0% | -1.5 | -8 | -1 | ·
COc1ccc(C(=O)C2CCCN(CCO)C2)c(C)c1 (stereo not given) | · | 1.2 | -6 | · | ·
COc1ccc(OCC(=O)Nc2cc3oc4ccccc4c3cc2OC)cc1 | 7% | -1.0 | 3 | -19 | -29
NC(=O)C1=C[C@@H](c2coc3ccccc3c2=O)C[C@@H](OCc2ccc(CO)cc2)O1 | · | 1.4 | 1 | -2 | ·
CCN1CCN(C(c2cccs2)C(C)NC(=S)Nc2cc(C)ccc2C)CC1 (stereo not given) | 1% | 0.0 | 0 | · | ·
COc1ccc(CCC(=O)Nc2ccc(C)c(S(=O)(=O)N(C)C)c2)cc1OC | -1% | 6.0 | 3 | 13 | -29
O=C(COC(=O)c1nn(-c2ccccc2)c(=O)c2ccccc12)NC1CCS(=O)(=O)C1 (stereo not given) | -4% | -0.6 | -3 | 25 | ·
COc1cc2c(cc1OC)CN(c1ccc(C(F)(F)F)cn1)CC2 | · | 5.5 | 5 | · | ·
CCOc1ccc(NC(=O)c2ccccc2OCC(=O)c2ccccc2)cc1 | 4% | 7.2 | -6 | 3 | -6
COc1cc(NC(=O)COC(=O)[C@@H]2CCCN2S(=O)(=O)c2ccc(Cl)cc2)cc(OC)c1OC | -3% | 2.9 | 0 | -3 | -38
O=C(COC(=O)Cc1c(F)cccc1Cl)NCCC1=CCCCC1 | 4% | 25 | 2 | 0 | -22
COc1ccc(CC(C)N2CCN(c3ccccc3OC)CC2)cc1OC (stereo not given) | 5% | 1.1 | -9 | 2 | -38
CSc1nc(C)c2c(n1)N(c1ccc(O)cc1)CC2 | -1% | -7.0 | -6 | 8 | ·
CCNc1nc(SC(C)C(=O)OC)nc(N2CCOCC2)n1 (stereo not given) | -6% | 3.3 | 5 | 2 | -47
CCOc1ccc(C(CC(=O)O)NC(=O)c2sc3ccccc3c2Cl)cc1 (stereo not given) | -4% | 0.7 | 6 | 4 | -31
Cc1csc(SCC(=O)Nc2cc(S(=O)(=O)N3CCCC3)ccc2Cl)n1 | -4% | 2.3 | -7 | 13 | -58
CC1CCN(S(=O)(=O)N2CCC(C(=O)O)CC2)CC1 | -4% | 1.7 | 2 | -1 | -21
Cc1cc(N2CCOCC2)nc2ccc(NC(=O)CCC(=O)N3CCN(c4ccc(F)cc4)CC3)cc12 | · | 0.4 | 3 | · | ·
COc1ccc(-c2csc(Nc3ccc(S(=O)(=O)Nc4cc(OC)nc(OC)n4)cc3)n2)cc1 | 7% | 10.0 | 0 | 4 | -33
COc1ccc(NC(=S)N(CCC(C)C)C2CCN(C(C)C)CC2)cc1Cl | · | 0.5 | 2 | · | ·
COc1cccc(C(=O)C2CCCN(C/C=C/c3ccccc3OC)C2)c1 (stereo not given) | 0% | 8.4 | 0 | 15 | ·
C=Cn1cc[n+](CC(=O)c2ccc(OC)cc2)c1 | · | -1.6 | 1 | · | ·
O=C(Nc1ccc(F)cc1F)c1c(C(F)(F)F)ccnc1Oc1cccc(C(F)(F)F)c1 | -4% | 0.7 | -3 | · | ·
O=C(O)c1ccc2c(=O)n3c(nc2c1)/C(=C/c1ccc(OC(F)F)cc1OC(F)F)CC3 | · | -5.9 | 8 | · | ·
COc1ccc(C2=NN(C(=O)c3cccnc3)C(c3ccccc3)C2)cc1 (stereo not given) | 2% | -0.3 | -1 | -9 | -5
COc1cccc(OC)c1C(=O)OCC(=O)N(C)c1ccccc1 | · | -0.2 | -2 | · | ·
CN1CCN(C(=O)C23CC4CC(CC(C4)C2)C3)CC1 | -2% | 3.6 | -12 | 5 | -29
Cc1cc(C)nc(SSc2nc(C)cc(C)n2)n1 | · | 0.4 | -1 | · | ·
Cc1cnc(C(=O)OCc2ccc(C#N)cc2)cn1 | · | 0.7 | 1 | · | ·
O=C(Cc1c(F)cccc1Cl)Nc1cccnc1 | 2% | 3.0 | 15 | 1 | -8
CCOC(=O)C1=C(C)NC(=O)N(C(C)=O)C1c1ccc(Cl)cc1 (stereo not given) | 2% | 1.1 | -13 | -7 | -32
O=C(NOC(=O)c1ccccc1F)c1ccc(OC(F)F)cc1 | -8% | 9.9 | 3 | 0 | ·
c1ccc2oc(-c3ccc4nc[nH]c4c3)nc2c1 | 11% | -3.3 | 55 | -9 | -44
O=C(CCN1C(=O)/C(=C\c2cccs2)SC1=S)Nc1ccc(C(=O)O)cc1 | · | 21 | 1 | · | ·
Cc1cc(-c2n[nH]c(=S)n2/N=C/c2c[nH]c3ccccc23)n[nH]1 | -2% | · | 0 | · | ·
CCOc1cc(C=O)ccc1OCC(=O)NC(C)(C)C | -4% | 1.3 | 1 | 8 | ·
CC1(c2nnc(-c3ccc(F)cc3)o2)CC(c2ccccc2)=NO1 (stereo not given) | -8% | -2.0 | -7 | · | ·
CC1(OC(=O)CCc2ccccc2)C(=O)C=C2C=C(c3ccc(C#N)cc3)N(C3CCCC3)C=C2C1=O (stereo not given) | -11% | 16 | 11 | · | ·
COc1cc(/C=N/NC(=O)c2nc(-c3ccccc3)n(-c3ccccc3)n2)ccc1O | 5% | -4.8 | -3 | -2 | -4
COCCn1c(SCC(=O)OCc2ccccc2)nc2c1c(=O)[nH]c(=O)n2C | 2% | 12 | -5 | -1 | · | Arbovirus anti repeat=4
CC(Nc1cc(N2CCOCC2)ccc1[N+](=O)[O-])c1ccccc1 (stereo not given) | 5% | -1.5 | -1 | 3 | -11

Entries listed so far with a CF3 group, in the order listed:
SMILES | Mtb H37Rv | RecA splice inh | Mtb bLac sens | Arbovirus anti | YopH inh | others
O=C(c1cc2cc(C(F)(F)F)ccc2s1)N1CCOCC1 | -5% | -0.9 | -5 | 6 | ·
COc1cc2c(cc1OC)CN(c1ccc(C(F)(F)F)cn1)CC2 | · | 5.5 | 5 | · | ·
O=C(Nc1ccc(F)cc1F)c1c(C(F)(F)F)ccnc1Oc1cccc(C(F)(F)F)c1 | -4% | 0.7 | -3 | · | ·

(continued)
SMILES | Mtb H37Rv | RecA splice inh | Mtb bLac sens | Arbovirus anti | YopH inh | others
COc1cccc(-c2nc(CS(=O)(=O)c3ccccc3)no2)c1 | 4% | 0.3 | -9 | -2 | -27
O=C(CCCN1C(=O)c2ccccc2C1=O)Nc1ccc(S(=O)(=O)N2CCOCC2)cc1 | -5% | 1.2 | 4 | 4 | 5
NS(=O)(=O)c1ccc(NC(=O)CN2C(=O)C3C4C=CC(C4)C3C2=O)cc1 (stereo not given) | -1% | 8.5 | -7 | 1 | ·
Fc1ccc2c(c1)C(c1ccc(N3CCOCC3)cc1)=NNC(c1cccs1)=N2 | -4% | 2.4 | 99 | -11 | -1
Cc1cc(C)cc(NC(=O)C2CCCN2/C=C/C(=O)C(F)(F)F)c1 (stereo not given) | 2% | -2.1 | -6 | 7 | -23
CCC12CN3CCN(CC(C3)/C1=N\NC(=O)Nc1ccccc1)C2 | 6% | -1.0 | 4 | -7 | -16
O=C(CCn1nc(-c2ccc(Cl)cc2)ccc1=O)NCc1cccnc1 | -5% | -3.1 | 6 | 8 | -5
CCOC(=O)c1c(C)nc2c(c1-c1cc(OC)ccc1OC)C(=O)c1ccccc1-2 | -4% | 3.4 | 2 | -1 | -30
O=C(Nc1ccc(C(F)(F)F)cc1)OC1CN2CCC1CC2 (stereo not given) | -10% | · | 0 | · | ·
CCN(CC)S(=O)(=O)c1ccc2c(c1)N(CC(=O)NCCc1ccc(S(N)(=O)=O)cc1)C(=O)CO2 | -9% | 0.9 | -4 | 1 | ·

Bioassay records from PubChem BioAssay.
